# GLA inh pH 4.5: qHTS Assay for Inhibitors of Human alpha-Galactosidase at pH 4.5. purified enzyme, 4-MU-alpha-Gal fluorescence, pH 4.5. activity change, negative = inhibition, % at 105 µM. 230,000 tested, under 10 active; inconclusive = small, poorly fitted or top-dose-only inhibition, or a rising curve; inactive = flat fitted curve, though single readings scatter; no compound was filed as active;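 also: 0% = full activity with enzyme and -100% = basal without enzyme; dose as in the result columns while the protocol names 77 µM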
# Rango dissoc inh: qHTS Assay for Inhibitors of RanGTP induced Rango (Ran-regulated importin-beta cargo) - Importin beta complex dissociation; Snurportin-1 (Homo sapiens) + GTP-binding nuclear protein Ran (Homo sapiens) + Importin …; Biochemical FRET Rango-importin beta, RanGTP-induced dissociation; Potency, µM (doses to about 46.1 µM), without a hit: top-dose activity change, negative = inhibition; 0.071% of 340,000 active; AID 540253, 2011; active means falling FRET ratio curve, often poorly fitted, with flat reads before Ran was added; inconclusive means other falling curves, or compound fluorescence or quenching; inactive means flat or rising ratio curve;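 also: potency is read from the fitted curve at half-maximal effect; % of control where 0% means no effect; nearly all actives have a fitted effect of over 45% in size; -100% = wells without RanGTP and RCC1; the record marks most hits as doubtful in a second field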
#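 Compounds preincubate 5 min with complex of recombinant Rango and importin beta in PBS with 1 mM DTT. Ran (0.6 uM) loaded with 2 mM GTP plus 0.2 uM RCC1 starts dissociation; FRET is recorded 45 min later.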
# miR-21 reporter: qHTS Assay for Modulators of miRNAs and/orActivators of miR-21. HeLa miR-21 FLuc reporter, luciferase, 48 h. Potency, µM (highest dose often 38.3 µM), without a hit: at the highest dose reporter change, positive = more light. 340,000 tested, under 10 active. AID 2288, 2010; active = well fitted rising curve with a large enough effect; inconclusive = small, poorly fitted or top-dose-only effect; inactive = no such curve, though single readings can be large or run the other way;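 also: % of control where 0% means no effect; miR-21 action dims this reporter so a rising signal means less miR-21 action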
#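 HeLa cells endogenously expressing miR-21, stably carrying CMV-driven firefly luciferase with a downstream miR-21 binding site, 2000 cells/well. Titrations up to approximately 40 uM, 48 hours; luciferase luminescence read.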
# Rango-impB inh: qHTS Assay for Inhibitors of Rango (Ran-regulated importin-beta cargo) - Importin beta complex formation; Importin subunit beta-1 (Homo sapiens), Q14974; Rango CFP/YFP FRET sensor + importin beta, 45 min; Potency, µM (doses to about 92.2 µM), for the others: at the highest dose inhibition of complex formation; 0.031% of 340,000 active; AID 540263, 2011; active = rising FRET ratio curve, often small or poorly fitted; inconclusive = mostly compound fluorescence or quenching in the first reads; inactive = flat curves in all reads;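 also: potency is read from the fitted curve at half-maximal effect; 0% = DMSO wells and 100% = buffer wells lacking importin beta; nearly all actives have a fitted effect of over 15% in size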
# Target sequence (Q14974 whole entry, looked up): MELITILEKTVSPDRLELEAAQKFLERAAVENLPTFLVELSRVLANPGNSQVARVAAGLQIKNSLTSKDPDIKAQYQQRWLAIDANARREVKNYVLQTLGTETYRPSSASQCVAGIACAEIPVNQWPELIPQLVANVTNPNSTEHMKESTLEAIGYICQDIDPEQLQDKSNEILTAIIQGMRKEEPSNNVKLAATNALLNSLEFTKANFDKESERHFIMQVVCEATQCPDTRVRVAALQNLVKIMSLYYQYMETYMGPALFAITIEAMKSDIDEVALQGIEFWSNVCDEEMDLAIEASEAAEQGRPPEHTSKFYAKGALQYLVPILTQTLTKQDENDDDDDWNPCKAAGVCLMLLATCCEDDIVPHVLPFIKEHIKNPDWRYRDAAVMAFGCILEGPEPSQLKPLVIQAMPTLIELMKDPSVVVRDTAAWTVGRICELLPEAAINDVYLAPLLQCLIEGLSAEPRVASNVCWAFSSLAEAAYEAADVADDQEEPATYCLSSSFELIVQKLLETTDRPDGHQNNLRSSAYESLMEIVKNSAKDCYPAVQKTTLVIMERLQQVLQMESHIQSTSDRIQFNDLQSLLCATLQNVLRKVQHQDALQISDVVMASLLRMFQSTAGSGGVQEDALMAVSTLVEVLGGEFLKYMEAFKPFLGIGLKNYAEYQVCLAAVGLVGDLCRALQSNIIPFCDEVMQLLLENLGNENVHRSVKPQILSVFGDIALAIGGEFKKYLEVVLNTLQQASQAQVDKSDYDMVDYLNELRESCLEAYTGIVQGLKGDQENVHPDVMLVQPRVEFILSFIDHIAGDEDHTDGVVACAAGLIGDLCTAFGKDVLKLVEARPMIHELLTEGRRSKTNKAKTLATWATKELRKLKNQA
#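 Inhibition scored from the CFP 486 nm/YFP 530 nm FRET ratio 45 min after adding 0.125 microM importin beta to 50 nM Rango biosensor preincubated 5 min with compound (room temperature, PBS with DTT, Tween-20, BSA). No-importin wells as positive control.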
# * marks the source's active call; other numbers are inactive results; u = inconclusive; x = no result given; & = joins results of further samples; [ ] = dose if it differs, or a comment.
SMILES,GLA inh pH 4.5,Rango dissoc inh,miR-21 reporter,Rango-impB inh
CNC(=O)CN1C(=O)COc2ccc(S(=O)(=O)N3CCCCCC3)cc21,x,5.1%,-0.2%&2.9%,0.0%
C/C(=N\NC(=O)CNc1cccc(Cl)c1C)c1cccs1,0.2,-0.1%,-3.0%,1.6%
Cc1ccc(/C=N/n2c(-c3cccnc3)n[nH]c2=S)o1,0.1,3.2%,1.0%,-0.4%
COc1ccc([N+](=O)[O-])cc1NC(=S)NC(C)=O,3.2,-4.9%,-1.0%,-1.3%
COc1cccc(C(c2nnnn2Cc2ccccc2)N2CCN(C(=O)c3ccco3)CC2)c1OC (stereo not given),-8.0,-10.3%,2.7%,-0.9%
COc1ccc(CCNC(=O)COc2ccc3c(C)cc(=O)oc3c2)cc1OC,x,2.6%,-0.8%,-0.9%
Cc1c(Cl)cccc1NS(=O)(=O)c1cn(C)c(=O)n(C)c1=O,x,9.5%,2.2%,4.5%
O=C(NCC(c1cccs1)N1CCOCC1)c1cc(-c2ccccn2)nc2ccccc12 (stereo not given),9.0,1.0%,-1.2%,4.4%
COc1ccc(O)c(C(=O)CC(=O)c2cccnc2)c1,x,25.0%,x,-1.4%
Cc1ccnc(NC(=O)CN(C)S(=O)(=O)c2cccc3nsnc23)c1,2.4,2.5%,1.7%,1.6%
C=CCn1c2ccccc2c2nnc(SCCN3CCCCC3)nc21,x,21.2%,0.6%,2.9%
Cc1nc(CCN2C(=O)c3ccccc3C2=O)n[nH]1,5.9,2.6%,-1.6%,-1.1%
COc1ccc(NC(=O)C2C(c3ccccc3)C2(Cl)Cl)cc1 (stereo not given),-17.1,1.0%,7.3%,-2.4%
COc1ccc(-c2cnn(-c3ccccc3)c2N)cc1OC,2.4,-0.4%,-31.3%,1.0%
CCOC(=O)C1=C(C)NC(=O)NC1c1ccc(Br)o1 (stereo not given),-6.2,1.7%,4.2%,-0.2%
Cc1cc(OCC(=O)NCC(c2ccc(F)cc2)N2CCOCC2)ccc1Cl (stereo not given),x,0.8%,x,1.6%
O=C(NCCC1=CCCCC1)C1CCC(CNc2nc(=S)[nH]c3ccccc23)CC1 (stereo not given),6.4[21.1 µM],-8.8%,-3.3%,0.5%
Cc1cc(NC(=O)CSc2ncnc3sc(C)c(C)c23)no1,18.8,-0.4%,2.3%,-1.7%
CCCCCn1c(=S)[nH]c2cc(C(=O)N3CCN(C(=O)OCC)CC3)ccc2c1=O,x,42.7%,-1.5%,-1.9%
COc1ccc(CCNC(=O)COC(=O)c2ccc(C)s2)cc1OC,x,u,x,0.6%
C=C1CCN([C@@H](CC(C)C)C(=O)NCCCc2ccccc2)S(=O)(=O)c2ccccc21,x,4.9%,x,3.2%
Cc1nn(-c2ccccc2)c2nc(-c3cccs3)cc(C(=O)NN)c12,-3.4,2.5%,0.4%,2.2%
O=S(=O)(NCCc1ccccc1)c1ccc(-n2cnnn2)cc1,x,21.5%,-0.7%,1.6%
Cn1c(=O)c2c([nH]c(=S)n2CCCc2ccccc2)n(C)c1=O,x,1.3%,0.7%,10.5%
CCc1cc(C(=O)N2CCCC(C(=O)c3ccc(Oc4ccccc4)cc3)C2)n(C)n1 (stereo not given),x,19.2%,19.0%,-2.7%
O=C(NCCC(=O)N1CCNC1=O)OCc1ccccc1,11.6,-8.8%,-1.0%,-6.0%
NC(=O)CC(NC(=O)Cc1ccc(Cl)cc1)c1ccc(NCCCN2CCCC2=O)c([N+](=O)[O-])c1 (stereo not given),x,-2.4%,-2.9%,0.2%
O=C(COC(=O)c1cc(S(=O)(=O)N2CCOCC2)ccc1Cl)NCCc1ccccc1,x,-9.3%,x,5.4%
COC(=O)c1ccccc1NC(=O)CSc1nnc(-c2ccoc2C)n1C,1.7,1.9%,-5.7%,1.1%
CC(=O)C1=C(C)Nc2ncnn2C1c1ccc(Cl)cc1Cl (stereo not given),-4.6,-15.0%,-1.3%,5.0%
O=C(Nc1cccc(Cl)c1)c1cccnn1,x,9.4%,-16.5%,-1.0%
CC(Sc1nnc(-c2ccco2)o1)C(=O)Nc1ccc(OC(F)F)cc1 (stereo not given),x,5.6%,x,-0.2%
Cc1onc(-c2ccccc2)c1C(=O)N1CCN(S(=O)(=O)c2ccc(Cl)cc2)CC1,x,-6.2%,0.0%,-0.7%
CCCCN1C(=O)C(NC(=O)C2CC2)(C(F)(F)F)C2=C1CC(C)(C)CC2=O (stereo not given),1.7,-3.0%,-4.1%,-1.2%
S=C1NC(c2ccccc2)=NCN1c1ccc(Br)cc1,-27.9,-3.5%,-31.9%,3.6%
NS(=O)(=O)c1cccc(NC(=O)COC(=O)CN2C(=O)c3ccccc3C2=O)c1,x,-31.1%,x,-2.7%
CCOC(=O)c1c(S(=O)(=O)NCC(=O)Nc2cccc(F)c2)c(C)n(C)c1C,x,6.1%,-5.7%,3.2%
O=C(COC(=O)c1cccc([N+](=O)[O-])c1)Nc1ncc(Br)s1,x,5.0%,x,1.9%
Nc1nc(SCC(=O)Nc2cc(S(=O)(=O)N3CCOCC3)ccc2Cl)n[nH]1,12.8,2.1%,-1.3%,-0.3%
CCN(CC)C(=O)c1cn(C)c(=O)c2cc(OC)c(OC)cc12,3.9,-9.7%,-11.9%,-0.1%

# 16 compounds from above, sorted by length of the SMILES, lowest first.
SMILES,GLA inh pH 4.5,Rango dissoc inh,miR-21 reporter,Rango-impB inh
O=C(Nc1cccc(Cl)c1)c1cccnn1,x,9.4%,-16.5%,-1.0%
O=C(NCCC(=O)N1CCNC1=O)OCc1ccccc1,11.6,-8.8%,-1.0%,-6.0%
S=C1NC(c2ccccc2)=NCN1c1ccc(Br)cc1,-27.9,-3.5%,-31.9%,3.6%
CC(=O)C1=C(C)Nc2ncnn2C1c1ccc(Cl)cc1Cl (stereo not given),-4.6,-15.0%,-1.3%,5.0%
O=S(=O)(NCCc1ccccc1)c1ccc(-n2cnnn2)cc1,x,21.5%,-0.7%,1.6%
CCN(CC)C(=O)c1cn(C)c(=O)c2cc(OC)c(OC)cc12,3.9,-9.7%,-11.9%,-0.1%
COC(=O)c1ccccc1NC(=O)CSc1nnc(-c2ccoc2C)n1C,1.7,1.9%,-5.7%,1.1%
Cn1c(=O)c2c([nH]c(=S)n2CCCc2ccccc2)n(C)c1=O,x,1.3%,0.7%,10.5%
Cc1nn(-c2ccccc2)c2nc(-c3cccs3)cc(C(=O)NN)c12,-3.4,2.5%,0.4%,2.2%
O=C(COC(=O)c1cccc([N+](=O)[O-])c1)Nc1ncc(Br)s1,x,5.0%,x,1.9%
Nc1nc(SCC(=O)Nc2cc(S(=O)(=O)N3CCOCC3)ccc2Cl)n[nH]1,12.8,2.1%,-1.3%,-0.3%
CCOC(=O)c1c(S(=O)(=O)NCC(=O)Nc2cccc(F)c2)c(C)n(C)c1C,x,6.1%,-5.7%,3.2%
CCc1cc(C(=O)N2CCCC(C(=O)c3ccc(Oc4ccccc4)cc3)C2)n(C)n1 (stereo not given),x,19.2%,19.0%,-2.7%
Cc1onc(-c2ccccc2)c1C(=O)N1CCN(S(=O)(=O)c2ccc(Cl)cc2)CC1,x,-6.2%,0.0%,-0.7%
C=C1CCN([C@@H](CC(C)C)C(=O)NCCCc2ccccc2)S(=O)(=O)c2ccccc21,x,4.9%,x,3.2%
NC(=O)CC(NC(=O)Cc1ccc(Cl)cc1)c1ccc(NCCCN2CCCC2=O)c([N+](=O)[O-])c1 (stereo not given),x,-2.4%,-2.9%,0.2%

# Later entries.
SMILES,GLA inh pH 4.5,Rango dissoc inh,miR-21 reporter,Rango-impB inh
N#Cc1ccc(C(=O)OCC(=O)Nc2ccc(N3CCOCC3)cc2)cc1,-1.0,-10.7%,-2.6%,7.1%
O=C(Nc1nccs1)c1cc(-c2ccccn2)nc2c(Cl)cccc12,x,-0.2%,4.1%,0.8%
CCCCOP(=O)(c1ccc(N(C)C)cc1)C(O)c1ccc(N(C)C)cc1 (stereo not given),x,0.0%,-0.2%,3.5%
Cn1cccc1C(=O)Nc1nc(-c2ccccn2)cs1,-2.1,-4.6%,5.7%,-1.2%
CC1(C)Cc2c(cnn2-c2ccccc2)C(NC(=O)CCCN2CCCCC2=O)C1 (stereo not given),x,-1.0%,-0.3%,2.6%
COC(=O)/C(=C\Nc1ccc(OC)cc1)NC(=O)c1ccc(Cl)cc1Cl,12.0,4.2%,-4.5%,-1.1%
O=c1[nH]c(CSc2nc3ccccc3[nH]2)nc2c1cnn2-c1ccccc1,1.0,-5.1%,19.3%,-2.1%
CC(C)[C@H](N)C(=O)OCCOCn1cnc2c(=O)[nH]c(N)nc21,1.9,7.0%&25.6%,x,-4.6%&0.9%
Cc1ccnc(NC(=O)c2cccc(S(=O)(=O)NCc3ccccc3)c2)c1,x,-1.9%,x,-0.5%
Cc1cc(NC(=O)CN2CCCC2c2nc3ccccc3s2)no1 (stereo not given),-0.8,-12.0%,-11.2%,-0.1%
Cn1c(SCC(=O)NC2CCCCC2)nnc1-c1ccncc1,x,-3.7%,1.4%,5.0%
Cc1nnc(SC(C)C(=O)Nc2ccc(S(=O)(=O)N3CCCCC3)cc2)s1 (stereo not given),-23.7,-7.9%,-1.2%,1.0%
O=Cc1c[nH]c2ncccc12,-11.7,1.3%,11.1%,u
CCC(=O)c1cn([C@@H](CCC(OC)OC)CC(=O)OC(C)(C)C)cc1CC,x,17.3%,x,1.4%
O=c1[nH]nc(SCCS(=O)(=O)c2ccc(F)cc2)n1-c1ccccc1,-13.2,-10.0%,20.6%,-4.4%
CC(=O)N(c1ccccc1)c1nnc(-c2cnc(C)cn2)s1,-5.0,0.0%,-34.2%,-3.0%
O=C(c1ccccc1NS(=O)(=O)c1cccs1)N1CCCC1,-14.4,-3.9%,-5.4%,-2.0%
COc1ccc(NC(=S)Nc2ccccc2)cc1,12.7,-3.1%&18.2%,-16.7%&-24.1%,-0.8%&-0.9%
COc1ccccc1OC(=O)CCN1c2ccccc2Sc2ccccc21,0.2,-2.0%,-4.7%,-1.6%
Cc1nc(N2CCOCC2)nc(N2CCC(C)CC2)c1[N+](=O)[O-],-6.8,-0.3%,-10.6%,0.2%
O=C(Nc1nnc(C2CC2)s1)c1cc(Cl)sc1Cl,x,u,-31.1%,1.7%
Cc1c(S(=O)(=O)Nc2ccc3c(c2)OCCO3)cnn1C,6.6,-11.0%,0.0%,4.6%
CCCNC(=O)C1CCN(c2nc(C)cc(C)n2)CC1,-12.4,-2.8%,1.4%,0.8%
COc1ccc(NC(=O)Nc2ccc(F)c(Cl)c2)cc1,-1.5,4.1%,-15.0%,-2.3%
COc1cc(NC(=O)c2cccs2)ccc1NC(=O)c1cc2ccccc2o1,1.2,-10.1%,-7.5%,-1.1%
CCN(CC)CCNC(=O)CNC(=O)c1nn(-c2ccc(OC)c(OC)c2)c(=O)c2ccccc12,x,-13.3%,1.1%,-1.4%
Cc1ccccc1NC(=O)COC(=O)CN1C(=O)NC(C)(C)C1=O,6.8,-1.1%,-0.8%,0.0%
COc1ccc(OC)c(CC(=O)NC(c2ccccc2)c2ccccc2)c1,x,0.5%,0.9%,3.1%
COc1ccc(N2CCN(CC(=O)N3c4ccccc4CC3C)CC2)cc1 (stereo not given),x,7.3%,0.6%,0.0%
CNC(=O)/C(C#N)=C\c1ccc(CNS(=O)(=O)c2ccccc2)o1,-4.7,-7.6%,-6.9%,-0.6%
Cc1ccc(-c2nnc(SCC#CCOC(=O)c3cccs3)o2)cc1,1.1,-4.3%,-37.9%,12.6%
COc1ccc(-n2ncc(N(C)n3cccc3)c(Cl)c2=O)cc1,6.1,u,-39.7%,-2.5%

# Filtered by structure: the entries above with a cyano group (two)
SMILES,GLA inh pH 4.5,Rango dissoc inh,miR-21 reporter,Rango-impB inh
N#Cc1ccc(C(=O)OCC(=O)Nc2ccc(N3CCOCC3)cc2)cc1,-1.0,-10.7%,-2.6%,7.1%
CNC(=O)/C(C#N)=C\c1ccc(CNS(=O)(=O)c2ccccc2)o1,-4.7,-7.6%,-6.9%,-0.6%

# Screening results (PubChem)

# A portion of the library; count on the stated rates, not on these rows.
